Screens as filed in PubChem.
MT1-MMP act inh – inhibitors of human MT1-MMP activation; GFP/RFP ratio change, % at 20 µM; HT1080 RFP-PRO-GFP cells, GFP/RFP ratio fluorescence, overnight; percent of plate control window, DMSO zero; 360,000 compounds, 0.061% hits;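 active means GFP/RFP ratio change of at least 30% with cell ATP level not reduced by more than half and red fluorescence within 50% of control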; further: strong numbers were not always called active
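Assay system: HT1080 RFP-PRO-GFP cells | Dosing: 20 µM single dose, 1% DMSO | Incubation: Cells overnight before dosing, compound overnight, 37 °C, 5% CO2 | Evaluation: GFP/RFP fluorescence ratio | Control set: DMSO-only wells and HT1080 RFP-L50D-GFP cell wells as references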
Yeast UUG start – modulators of start codon recognition fidelity in yeast; S. cerevisiae UUG-firefly luciferase reporter, luminescence/redox ratio; activity score, % at 18.7 µM; AID 602363; 350,000 compounds, 0.13% hits;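 active means replicate mean at a twofold rise or more, about +100% in these data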;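 further: firefly luciferase made from a UUG start codon reports start codon fidelity; reporter light over untreated wells divided by growth signal over untreated wells; some hits fall short of that in this replicate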
eIF4H FP inh – inhibitors of RNA binding by human eIF4H | inhibition, % at 35 µM | Q15056 | 290,000 compounds, 0.94% hits | eIF4H fluorescence polarization binding assay;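 active means 50% or more with normal probe brightness, or confirmed in later tests; inconclusive means above 50% with abnormal brightness, or retests that disagree; inactive means below 50% or failed in later tests; about a fifth of its hits are not listed in these tables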;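 further: calls also rest on retests at 20 µM and on dose response follow-up; 0% = protein and probe with vehicle and 100% = probe without protein; strong numbers were not always called active; many hits fall short of the cut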
Rce1 inhib – inhibitors of yeast Ras-converting enzyme | calls only | 290,000 compounds, 0.27% hits | yeast membranes, quenched prenylated peptide cleavage fluorescence;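 active means fall in fluorescence gain of 50% or more versus controls, with final raw signal at or below 3038400; inconclusive means same 50% fall but final raw signal above 3038400; inactive means fall in fluorescence gain under 50%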;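 further: plate controls were neutral control wells for no effect and wells lacking membranes for full effect; tested at 10 µM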
Target sequence (Q03530 whole entry, looked up): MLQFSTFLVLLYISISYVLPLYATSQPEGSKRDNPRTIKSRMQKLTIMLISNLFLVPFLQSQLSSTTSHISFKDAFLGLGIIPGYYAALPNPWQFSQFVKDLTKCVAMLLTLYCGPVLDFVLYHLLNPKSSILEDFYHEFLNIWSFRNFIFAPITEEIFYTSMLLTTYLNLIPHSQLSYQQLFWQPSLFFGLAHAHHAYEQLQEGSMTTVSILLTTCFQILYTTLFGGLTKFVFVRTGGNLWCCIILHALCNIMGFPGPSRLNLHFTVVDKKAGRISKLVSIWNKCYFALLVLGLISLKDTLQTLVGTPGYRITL
Env fusion inh – blocks HIV Env-driven cell-cell fusion. 360,000 compounds, 1.1% hits. inhibition, % at 12.3 µM. AID 651610. HeLa-JRFL Env/CEM21 cell fusion, luciferase;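 active means mean replicate inhibition score of at least 50 and every replicate individually at or above 50; inconclusive means only one of the two criteria met; inactive means mean below 50 and not all replicates reaching 50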;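 further: 0% = plate neutral controls and 100% = maraviroc near 300 nM; one replicate is shown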
CSC inhib – blocks cancer stem cells | 300,000 compounds, 1.1% hits | AID 2717 | cancer stem cell-like cells viability, luminescence | inhibition, % at 7.5 µM;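 active means mean at 75% or more and at least half the replicates too; inconclusive means mean and replicates disagree; tested in HMLE shEcad cells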;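 further: 0% = median of negative and 100% = median of positive control wells; the first replicate is given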
PABP polyA inh – blocks human PABP binding to poly(A) RNA; P11940; fluorescence polarization; inhibition, % at 35 µM; 290,000 compounds, 1% hits; AID 2014;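 active means 50% or more with normal probe brightness, or confirmed in later tests; inconclusive means above 50% with abnormal brightness, or retests that disagree; inactive means below 50% or failed in later tests; about a fifth of its hits are not listed in these tables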;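 further: calls also rest on retests at 20 µM and on dose response follow-up; controls were probe without protein and protein plus probe with vehicle; some compounds called inactive have numbers as strong as hits; many hits fall short of the cut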
MT1-MMP act inh RFP – also measured in MT1-MMP act inh; calls as there; RFP signal change, %; measured here: RFP expression control read;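 0 = vehicle wells; hits needed this value within 50% of zero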
Active calls of the source: *; i = inactive; ? = inconclusive; . = not tested or not shown; + = active, no number; & = joins results of further samples.

Value order: MT1-MMP act inh	MT1-MMP act inh RFP	Yeast UUG start	eIF4H FP inh	Rce1 inhib	Env fusion inh	CSC inhib	PABP polyA inh
- CCNc1nc(NCC)n2c(SCc3nc4ccccc4c(=O)[nH]3)nnc2n1
  7	1	-4	6	i	.	18	0
- NC(=O)c1ccc(NCC2COc3ccccc3O2)c([N+](=O)[O-])c1 (stereo unspecified)
  6	-4	-15	-5	i	10	-1	12
- Cc1cccc(-c2noc(CN(C(C)C)S(=O)(=O)c3ccc(F)cc3)n2)c1
  -4	-12	-1	-2	i	.	.	-18
- COC(=O)C1(C(O)C(=O)c2ccc(C)cc2C)CCCCC1 (stereo unspecified)
  4	5	-1	-6	i	-1	-13	0
- Clc1cccc(-c2nnc(SCc3nc4ccccc4[nH]3)n2Cc2ccco2)c1
  -10	1	-20	0	i	?	-23	4
- Cc1c(C(=O)Nc2ccccc2Cl)oc2ccc(S(=O)(=O)N3CCC4(CC3)OCCO4)cc12
  5	-9	3	2	i	-43	.	0
- COCCc1nc2ccc(C(=O)N(C)Cc3cccc(-n4cccn4)c3)cc2o1
  -1	-3	-9	5	i	52	4	13
- COc1ccc(C2=NOC(Cn3nc(C(=O)NCc4cccc(Br)c4)cc3-c3ccccc3)C2)cc1 (stereo unspecified)
  22	-2	7	.	.	85*	.	.
- Cc1cc(C)cc(Oc2ncnc3c2ncn3Cc2c(Cl)cccc2Cl)c1
  -8	-6	-14	-4	i	28	.	8
- Cc1ccc(-n2c(C)cc(C(=O)COc3cccnc3[N+](=O)[O-])c2C)cc1
  -24	-21	-3	26	i	15	2	-6
- CCNC(=S)N1CCN(S(=O)(=O)/C=C/c2ccccc2)CC1
  0	2	-27	-8	i	5	10	2
- O=C(Nc1cccnc1Oc1ccc(Cl)cc1)c1cccc2ccccc12
  2	-5	-3	-4	+	12	24	6
- C/C(=C\C(=O)c1ccc(Cl)s1)N(C)C
  4	5	.	0	i	-2	-14	6
- O=C(Oc1ccccc1[N+](=O)[O-])c1cccnc1
  3	6	.	5	i	.	-12	-4
- OCC[C@@H]1C[C@H](O)[C@@H](O)[C@@]2(OCc3cc(Cl)ccc32)O1
  -1	3	-2	.	.	-13	.	.
- COc1ccc(CNC(=O)Cn2nc(Cc3cccnc3)c3ccccc3c2=O)cc1
  1	-1	6	3	i	7	.	-3
- COc1cc2c(cc1OC)C(C)N(C(=O)c1c(C)noc1C)CC2 (stereo unspecified)
  -1	-4	-5	7	i	0	9	-10
- Cc1cc(=O)n2[nH]c(-c3ccsc3-n3c(C)ccc3C)cc2n1
  -22	10	.	75*	i	5	-11	81*
- CC(=O)c1c(C)[nH]c(C(=O)COC(=O)CCCOc2ccccc2)c1C
  -5	2	.	-2	i	-9	1	-2
- COCCN1C=C(C(=O)OC)C(c2ccccc2C(F)(F)F)C(C(=O)OC)=C1
  3	1	-11	-4	i	.	-5	-3
- FC(F)(F)c1ccc(-c2cccc3c2C2CC3CCN2Cc2ccccc2)cc1 (stereo unspecified)
  5	-6	2	.	.	0	.	.
- FC(F)(F)c1cc(C(F)(F)F)n2nc(-c3sccc3-n3cccc3)cc2n1
  0	-2	-4	9	i	-200	0	-1
- O=C(Nc1ccc(N2CCOCC2)cc1)c1ccc(S(=O)(=O)NCc2ccco2)cc1
  -1	-5	-6	2	i	6	5	3
- O=C(CSc1nnc(COc2cccc3cccnc23)o1)N1CCCC1
  -1	-3	.	-5	i	12	-9	-3
- NNC(=O)c1ccc(Cn2cc(Br)cn2)o1
  0	1	.	-6	i	14	-12	-1
- Cc1cccc(C(=O)NCC(=O)N2CC(=O)Nc3ccccc32)c1
  2	6	.	11	i	-3	-26	-5
- C=C(C)CN(CC)C(=O)CC1C(=O)NCCN1Cc1c(F)cccc1Cl (stereo unspecified)
  1	4	.	6	i	15	-4	0
- O=C(CSc1nnc(-c2ccc3c(c2)OCO3)n1-c1ccccc1)c1ccccc1
  -4	-4	-10	2	i	-9	.	-5
- CCOC(=O)CNC(=S)N(Cc1ccccc1F)C1CCCCC1
  -14	-9	-25	-8	i	25	-14	17
- C=CCN=C1S/C(=C/c2cccc([N+](=O)[O-])c2)C(=O)N1CC=C
  11	-1	.	-4	i	-100	-2	5
- COc1ccc(NC(=O)N2CCCc3ccccc32)cc1
  5	4	-14	-6	i	18	.	-4
- O=C(CSc1nccc(=O)[nH]1)NCc1ccc2c(c1)OCO2
  0	-3	-14	4	i	-19	-9	4
- COc1ccc(-c2cc(-c3ccc(F)cc3)nc(N3CCN(C)CC3)n2)cc1
  -14	-10	-10	.	i	-97	17	.
- CC(Sc1nc(-c2ccccc2)cc(C(F)(F)F)n1)C(=O)N1CCCCC1 (stereo unspecified)
  -9	-10	-13	-7	.	.	-17	1
- Cc1ccc([N+](=O)[O-])cc1N=C(c1cccc(Br)c1)N1CCOCC1
  -3	-3	-12	-11	i	-13	-13	1
- CN(C(=O)C1CCCC1)C1CCS(=O)(=O)C1 (stereo unspecified)
  1	-1	-10	.	i	-2	7	.
- COc1ccccc1OCC(O)CN1CCN(C(=O)c2ccccc2)CC1 (stereo unspecified)
  4	8	-3	-6	i	15	-4	-4
- COCCNC(=O)CCc1ccc(S(=O)(=O)Nc2ccc(C)cc2)cc1
  -1	-6	-1	2	i	-36	-1	-6
- O=C(CCc1ccccc1)Nc1ccccc1C(F)(F)F
  0	0	1	4	i	-10	4	4
- COc1ccc(CN2CCC(=O)N([C@H](CO)c3ccccc3)CC2)cc1OC
  0	6	0	-11	i	11	-2	-2
- COc1cccc(C(=O)N/N=c2/oc3ccccc3cc2C(N)=O)c1
  1	3	.	2	i	7	-8	-2
- O=C(NC(=S)NCc1ccc(F)cc1)c1ccccc1
  3	2	.	7	i	.	27	1
- CCc1cc2c(=O)n(-c3ccc(C)cc3)cnc2s1
  12	-2	-17	2	i	.	0	18
- C/C(=N\NC(=O)c1nn(C)cc1Br)c1cccc(NC(=O)c2ccncc2)c1
  4	5	-20	7	i	-18	0	6
- CC(Oc1ccc(F)cc1)C(=O)Nc1ccc2ccccc2c1 (stereo unspecified)
  6	4	-21	0	i	-81	42	1
- Cc1ccc(NC(=O)CSc2nc3ncc(Br)cc3[nH]2)cc1C
  1	0	-17	0	i	2	31	0
- Cc1ccc(S(=O)(=O)NC(=O)C2(C)CCN2C(=O)C2(c3ccc(Cl)cc3)CCC2)cc1 (stereo unspecified)
  2	1	4	.	.	-8	.	.
- Cc1onc(-c2ccccc2)c1C(=O)NC(C)c1ccc2c(c1)OCO2 (stereo unspecified)
  -3	-3	2	-14	i	7	4	1
- Cc1ccccc1NC(=O)Cc1nc(COC(=O)c2ccc(Cl)nc2)cs1
  3	6	.	.	i	3	-14	.
- COc1cccc(OCc2cc(C(=O)NCCc3cccc(C)n3)no2)c1
  -4	1	-9	-9	i	6	1	-5
- O=C(CNC(=O)N1CC(=O)Nc2ccccc21)NCc1cccc(Cl)c1
  -1	3	-16	-5	i	3	6	-8
- Cc1cccc(Nc2nc(N)nc(CN3CCC(C)CC3)n2)c1C
  -3	1	-8	4	i	.	-3	22
- O=C1CC(N(CCc2ccccc2)C(=S)Nc2ccccc2)C(=O)N1c1ccccc1 (stereo unspecified)
  -2	-3	.	-2	i	.	79*	-6
- O=C(COc1ccc(Cl)cc1Cl)NCCCNC(=O)c1cnccn1
  1	-2	-18	-4	i	4	.	-2
- CC(=O)C1=C(C)NC(SCC(N)=O)=C(C#N)C1CC(C)C (stereo unspecified)
  4	4	.	14	i	11	.	2
- COc1ccc(C(=O)NCCCNC(=O)c2cccnc2)cc1Br
  3	3	5	-6	i	-37	-22	-4
- CCCCNC(=O)C1CC(=O)N(C2CCCC2)C1 (stereo unspecified)
  -1	3	-4	1	i	-63	-9	3
- Cc1cc(=O)c2ccccc2n1Cc1ccccc1
  0	-16	.	-6	i	3	-4	0
- O=C(NCc1ccccc1)c1cc(C2COCCN2C(=O)OCCF)on1 (stereo unspecified)
  2	2	0	.	.	7	.	.
- COC(=O)C1(NC(=O)NC23CC4CC(CC(C4)C2)C3)CCCCC1
  3	4	.	-6	i	9	-7	-3

Going on with the list.
Value order: MT1-MMP act inh	MT1-MMP act inh RFP	Yeast UUG start	eIF4H FP inh	Rce1 inhib	Env fusion inh	CSC inhib	PABP polyA inh
- O=C(CN(Cc1ccccc1Cl)C(=O)Cn1nnc(-c2cccs2)n1)NCC1CCCO1 (stereo unspecified)
  -7	1	-18	-4	i	.	-1	3
- COc1cc2oc(=O)cc(-c3ccc(-c4ccc(O)cc4)cc3)c2c(OC)c1OC
  -8	-6	-8	.	.	-72	.	.
- COc1ccc(C(=O)OCC(N)=O)cc1[N+](=O)[O-]
  12	-1	-5	8	i	5	-15	-1
- Cc1cc(=O)oc2ccc(OCC(=O)N3CCC(C)CC3)cc12
  0	2	-7	-3	i	.	-6	-2
- COC(=O)c1c(CSc2ccc(C)c(C)c2)noc1C(=O)NCc1ccc(OC)cc1
  8	-5	-17	-12	i	31	1	-8
- COc1cc(C2NC(=O)NC(O)(C(F)(F)F)C2C(=O)c2ccc(Cl)cc2)ccc1O (stereo unspecified)
  4	4	-6	2	.	-88	6	10
- O=C(COc1ccc(Br)cc1Cl)NCCCN1CCOCC1
  -16	-3	-17	-2	i	.	-5	-7
- O=[N+]([O-])c1ccc(-n2nnnc2-c2ccccc2)cc1
  6	8	2	6	i	20	-1	-9
- CCOc1ccc(N=C2SCCCN2C(=O)c2c(CC)noc2C)cc1
  -1	-2	1	-15	i	19	-25	-3
- C[C@H]1NS(=O)(=O)c2ccc(Br)cc2O[C@H]1c1ccccc1
  1	1	-19	.	.	-3	.	.
- Cc1nnc(SCc2cn3ccsc3n2)n(N)c1=O
  1	-1	-22	4	i	.	9	-10
- CCC1Nc2ncnc(N3CCN(c4ccccc4)CC3)c2N(Cc2ccc(OC)cc2)C1=O (stereo unspecified)
  -6	-5	-20	.	i	-5	-18	.
- O=C(NCc1ccco1)c1cc(-c2ccco2)on1
  0	-1	.	1	i	.	-4	3
- COc1ccc(NC(=O)N(C)C[C@H]2Oc3ccc(NS(=O)(=O)c4cn(C)cn4)cc3C(=O)N([C@H](C)CO)C[C@@H]2C)cc1
  0	5	2&-12	.	.	-13	.	.
- c1ccc(C(c2nnnn2Cc2ccco2)N2CCN(c3nc4ccccc4s3)CC2)cc1 (stereo unspecified)
  -11	-23	-5	4	i	.	-2	-4
- COc1ccccc1N(CC(=O)N/N=C/c1ccccc1C(=O)O)S(C)(=O)=O
  0	2	.	9	i	0	2	-3
- Cc1ccccc1OCCCCCNCCO
  5	1	-12	-22	i	.	.	-13
- Cc1cccc(NC(=O)CC2CCC2)c1
  -1	2	-16	-4	i	-9	-13	2
- O=C(Nc1ncn[nH]1)c1ccc(S(=O)(=O)N2CCOCC2)cc1
  0	0	-22	-1	i	-3	.	4
- COc1ccc(-c2nc3n(c(=O)c2C#N)CCS3)cc1OC
  0	2	.	-4	i	13	2	4
- CC(C)C(c1nnnn1C1CCCC1)N(C)C1CCCCC1 (stereo unspecified)
  -15	-9	-13	2	i	17	-9	0
- Nc1nc(CN2CCC(Cc3ccccc3)CC2)nc(Nc2ccccc2)n1
  6	6	-13	-12	i	7	-6	-1
- CSc1ccccc1C(=O)NCc1ccccc1
  0	-1	-6	0	i	-3	-8	-8
